# Bioassay records: PubChem, ICCB-Longwood Screening Facility, Harvard Medical School
# Ba CapD inh = blocks the Bacillus anthracis CapD enzyme; z-score (test concentration not listed); purified CapD enzyme, fluorescence intensity read-out; stronger effect = lower value; some hits fall short of the stated cut; 140,000 tested, 0.23% active;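 active = z-score under -4 in either of two replicates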;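 also: stock transfer was 100 nL into about 40 µL; score is relative to mean and spread of the plate; one replicate is shown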
# AID504770 = E. coli YBA685 growth inhibition, screen for V. cholerae RctB inhibitors; z-score (test concentration not listed); 130,000 tested, 0.27% active; AID 504770; E. coli YBA685 rctB-dependent plasmid, OD600 growth, 3 h; stronger effect = lower value;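 active = z-score under -2 on both plates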;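 also: wells of about 30 µL received 100 nL stock; score is relative to mean and SD of the test wells; the first replicate is given; strong numbers were not always called active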
# * hit, by the source's call; x = not tested or not shown. Compounds as they come. Share with any hit: about 0.39%.
compound	Ba CapD inh	AID504770
COc1ccc(N2C(C(C)=O)=NN(c3ccc(Cl)cc3)C2c2ccc(OCc3c(Cl)cccc3Cl)c(OC)c2)cc1 (stereo unspecified)	-0.49	x
CC1(C)CC(C(CC(=O)O)Cc2ccccc2)CCO1 (stereo unspecified)	x	-0.3
O=C(CCBr)N1CCN(C(=O)CCBr)CC1	-0.3	0.15
COc1cc(C(=O)C(C#N)c2nc3ccccc3s2)cc(OC)c1OC (stereo unspecified)	-1.2	-0.3
N#CCCN(Cc1ccccc1)S(=O)(=O)c1ccccc1	0.12	-0.15
COc1cc(/C=C2\SC(=S)N(CC(=O)Nc3ncc(Cc4ccccc4Cl)s3)C2=O)cc(OC)c1OC	-1.4	x
CN(C)c1ccc(CN2C(=O)CCC2(C)C(=O)N2CCCC2)cc1 (stereo unspecified)	1.2	0.45
O=C(Oc1ccc2c3c(c(=O)oc2c1)CCC3)C1CCCCC1	0.88	0.1
Cc1cc2cc(CNC(=O)Cc3cccc4ccccc34)ccc2[nH]1	0.13	-0.4
O=C1Nc2ccccc2SC1C1C(=O)Nc2ccccc21 (stereo unspecified)	-0.21	-0.55
CC(=O)N1C=CC(c2c[nH]c3ccccc23)C=C1	8.7	x
c1ccc(-c2nnc(-n3nnc4ccccc43)c3ccccc23)cc1	-0.94	x
COC(=O)C1=NOC2(CC(=O)N(c3ccc(Cl)cc3)C2=O)C1 (stereo unspecified)	1	0.3
CCNC(=S)N/N=C/c1ccc(O)cc1	x	-0.35
CCOC(=O)c1sc(C)c2c(=O)n(Cc3ccccc3)c(C)nc12	4.4	-0.05
COCCN(CCOC)C(=O)c1c[nH]c2ccc(S(=O)(=O)N(C)c3ccc(Cl)cc3)cc2c1=O	2.5	x
COC(=O)c1ccccc1NC(=O)N1CCOc2ccccc21	-0.58	1.2
Brc1ccc2oc(-c3ccn[nH]3)cc2c1	0.49	1.1
COC(=O)C1C(=O)NC(SCC(=O)Nc2cc(Cl)ccc2OC)=C(C#N)C1c1ccc(Cl)cc1 (stereo unspecified)	-0.18	x
Clc1ccc(-c2nc(-c3cnccn3)no2)cc1	-0.33	0.1
CC1CCCN(Cc2c(O)ccc3cc(-c4nc5ccccc5s4)c(=O)oc23)C1 (stereo unspecified)	-0.5	x
CCOC(=O)Cc1csc(-c2ccc(Oc3ccc(C(F)(F)F)cn3)cc2)n1	12	-0.25
CCOC(=O)c1c(NC(C)=O)sc2c1CCCCC2	2.9	-1
CC(C)(C)NC(=O)Cn1nnc(-c2ccc3c(c2)OCO3)n1	-0.24	-0.55
CCC(C)C1Nc2ccc(C(=O)NCCc3ccc(OC)c(OC)c3)cc2NC1=O (stereo unspecified)	0.56	0.05
CSc1nc2c(c(=O)n1C)C1(CCCCC1)Cc1ccccc1-2	1.1	x
Brc1ccc(NC2=NCCCCCC2)cc1	x	-0.45
CC(C(=O)Nc1ccccc1C(=O)NCc1ccco1)N(c1ccccc1)S(C)(=O)=O (stereo unspecified)	-0.065	1.7
O=C(OCc1ccco1)C1c2ccccc2Oc2ccccc21	-0.2	-0.5
c1nc(N2CCCCC2)c2sc3nc(N4CCOCC4)c4c(c3c2n1)CCCC4	1.5	x

# A section from further up:
compound	Ba CapD inh	AID504770
O=C(OCc1ccco1)C1c2ccccc2Oc2ccccc21	-0.2	-0.5
c1nc(N2CCCCC2)c2sc3nc(N4CCOCC4)c4c(c3c2n1)CCCC4	1.5	x

# 3 records picked at random from the list so far, as already listed:
compound	Ba CapD inh	AID504770
CC(C(=O)Nc1ccccc1C(=O)NCc1ccco1)N(c1ccccc1)S(C)(=O)=O (stereo unspecified)	-0.065	1.7
COC(=O)C1=NOC2(CC(=O)N(c3ccc(Cl)cc3)C2=O)C1 (stereo unspecified)	1	0.3
CC1CCCN(Cc2c(O)ccc3cc(-c4nc5ccccc5s4)c(=O)oc23)C1 (stereo unspecified)	-0.5	x

# Following part:
compound	Ba CapD inh	AID504770
CC1C(=O)c2ccccc2OC1O (stereo unspecified)	6.5	0.85
COc1ccccc1C1CCN(C(=O)CSCc2cccc3ccccc23)CC1	0.23	0
COCCN(Cc1nnc(-c2cccs2)o1)C(=O)c1cc2ccccc2o1	x	0.55
CCSc1nnc(-c2ccccc2)n1-c1ccccc1	-0.76	2
Cc1cccc(Cn2c(=O)n(Cc3ccccc3)c(=O)c3c(C)c(C)sc32)c1	1.4	1.2
C/C(=N\N)c1ccc2c(c1)-c1ccccc1C2	x	0.7
CCOC(=O)Cc1nnc2c(Nc3ccccc3OC)nc3nonc3n12	x	0.5
O=C(CSc1cc(Cl)ccc1Cl)NCCCn1ccnc1	-1.1	1.8
CCOC(=O)c1nc2ccccc2nc1NCCOC	x	-0.2
COC(=O)CCC/C=C1/SC[C@@H](NC(=O)c2ccccc2)/C1=N/O	0.15	x
CCOC(=O)Cc1cc(=O)n2[nH]c(C(C)(C)C)cc2n1	5.2	-1.6
OC(CN1CCC(Cc2ccccc2)CC1)c1ccccc1 (stereo unspecified)	x	2.1
O=C(/C=C/c1ccccc1)NC(O)C(=O)c1ccccc1 (stereo unspecified)	x	-0.65
OC(CSc1cccc2cccnc12)Cn1c2ccccc2c2ccccc21 (stereo unspecified)	-0.77	-0.2
Nn1c(-c2ccccc2)cn2c(cc3sccc32)c1=S	x	-0.55
CN(Cc1nc2ccccc2n1C)S(=O)(=O)c1ccc(Cl)cc1	-1	2.7
COc1ccc2[nH]c(C(=O)NCCCn3ccnc3)cc2c1	68	-0.3
Cc1ccc(C)c2[nH]c(=O)c(CCNC(=O)C3CCCC3)cc12	x	0.55
CCCSc1nc2c(cnn2-c2ccccc2)c(=O)[nH]1	-1.2	1.9
O=C(O)c1c2ccccc2cc2ccccc12	-0.48	x
Cc1cc(C)c2nc3s/c(=C/c4cccn4-c4ccc([N+](=O)[O-])cc4)c(=O)n3c2c1	-0.55	x
Cc1ccc(C)c(N2N=C(C(=O)OCC(=O)NCc3ccco3)CCC2=O)c1	x	-0.6
CCn1c(CN(C)Cc2cccc(F)c2)nc2cc(S(=O)(=O)N(C)C)ccc21	x	0.2
CC(C)(C)NC(=S)NC1CC1	0.65	-0.7
O=C(O)c1ccc2c(c1)C1C(Cl)C(Sc3ccccc3[N+](=O)[O-])CC1C(c1ccccc1F)N2 (stereo unspecified)	-0.39	x
CN1C(=O)C2C=C(C(=O)NCCN3CCC(Cc4ccccc4)CC3)SC2c2ccccc21 (stereo unspecified)	21	-0.4
N/C(=N\O)c1cnn2c(C(F)(F)F)cc(C(F)(F)F)nc12	-0.17	-0.5
Cc1cc(C)nc(NS(=O)(=O)c2ccc(NC(=O)CCCN3C(=O)c4ccccc4C3=O)cc2)n1	-0.13	x
COC(=O)C(CC(=O)c1ccc(Br)cc1)(Cc1ccc(Br)cc1)C(=O)OC	-0.1	0.25
O=C(O)c1cnn(-c2ccccc2)c1-n1cccc1CNCc1ccc(Cl)cc1	0.13	-0.3

# One compound at a time, from the list above. Order of screens: Ba CapD inh	AID504770
# O=C(/C=C/c1ccccc1)NC(O)C(=O)c1ccccc1 (stereo unspecified) is listed as x	-0.65
# COCCN(Cc1nnc(-c2cccs2)o1)C(=O)c1cc2ccccc2o1 is listed as x	0.55

# Following part.
compound	Ba CapD inh	AID504770
O=C(Nc1ncnc2sc3c(c12)CCC3)c1ccccc1	-0.29	-0.45
CN(C)c1ccc(N2C(=O)C3C4c5ccccc5C(c5ccccc54)C3C2=O)cc1 (stereo unspecified)	0.13	x
O=C(CC(c1ccccc1)c1ccccc1)Nc1nn[nH]n1	-0.3	-0.75
CC1(C)CC(=O)C2=C(C1)OC1=C(C(=O)CC(C)(C)C1)C2c1ccc(OCC(=O)OCc2ccccc2)cc1	-0.31	x
Cc1nn(CCC(=O)NCc2ccco2)c(C)c1Cl	x	0.8
Cc1nn2cnnc2c(C)c1CCC(=O)NC1CCCCC1	4.9	0.2
CN1CCS/C1=C\C=C1/SC(=S)N(c2ccccc2)C1=O	x	-0.35
COc1ccc(C(=O)Cn2nc(CNc3ccc(Br)cc3)[n+]3c2CCCCC3)cc1	-0.48	-0.55
COc1ccccc1C(=O)OCCN1C(=O)C2C3c4ccccc4C(c4ccccc43)C2C1=O (stereo unspecified)	-0.15	x
CCCCOc1ccc(C2C(N3C(=O)c4ccccc4C3=O)C(=O)N2c2ccc(C)c(Cl)c2)cc1 (stereo unspecified)	-0.44	x
COC(=O)C1=C(C)N(Cc2ccc(OC)cc2)C(=O)/C1=C\c1ccco1	-0.02	1.4
Cc1cc(Cl)cc(Cl)c1CN(C)C(=O)c1cnc(Oc2ccc(Cl)cc2)cc1C(F)(F)F	-0.85	-0.8
CCC(=O)Nc1n[nH]c(-c2ccncc2)n1	x	-0.65
CC1CC2(C)C(O)CCC2C2CCc3cc(O)ccc3C12 (stereo unspecified)	-0.28	x
COc1cc(O)oc1C=Nc1ccccc1	0.54	1.9
O=C(NCCCN1CCCC1=O)c1cc(-c2ccccc2)nc2ccccc12	x	-0.4
CN(C)c1ccc(/C=C/C=N/c2sccc2C#N)cc1	0.3	-0.55
N#C/C(=C\c1ccc(C(F)(F)F)cc1)c1ccc(O)cc1	48	-0.35
Cc1nn(-c2ccccc2)c2nc(-c3ccccc3)cc(C(=O)NC3=NCCS3)c12	x	1.3
C/C(=C/C(=O)C(F)(F)F)N1CCN(c2ccccc2F)CC1	x	0.35
CC(NC(=O)CSc1ccc(S(=O)(=O)N(C)C)cn1)c1ccc2c(c1)OCCO2 (stereo unspecified)	x	1.1
CCN(CC)S(=O)(=O)c1ccc(Cl)c(C(=O)NCC(C)C)c1	0.57	-0.15
Brc1ccc(OCc2nnc3n2CCCCC3)cc1	-0.37	-0.75
Cc1ccc(Cn2c(=S)[nH]c3cc(Cl)ccc3c2=O)cc1	-0.36	x
c1ccc(CSC2=NCCS2)cc1	0.2	0.25
O=C(O)CCCC(=O)Nc1nc2ccccc2s1	0.12	1.1
CCC(=O)OC1C(C)OC(OC2C(C)OC(O[C@H]3[C@@H](CC=O)C[C@@H](C)[C@@H](O)/C=C/C=C/C[C@@H](C)OC(=O)C[C@@H](OC(=O)CC)[C@@H]3OC)C(O)C2N(C)C)CC1(C)O (stereo partly specified)	-1.2	x
CC1=Nc2ccccc2NC(=O)C1Cc1ccccc1 (stereo unspecified)	-0.12	-0.6
Cc1cccn2c(=O)c3cc(C#N)c(=NC(=O)c4ccccc4)n(Cc4ccco4)c3nc12	x	-0.5
CCN(CC)S(=O)(=O)c1ccc(NC(=O)[C@@H]2CCCC[C@@H]2C(=O)O)cc1	-0.04	2.1

# Following part.
compound	Ba CapD inh	AID504770
Cn1c(SCCC(=O)O)nc2ccccc21	x	-0.6
Cc1cc(N2CCN(c3ccccc3)CC2)n2c(nc3ccccc32)c1C#N	x	0.1
O=C1CN(S(=O)(=O)c2ccccc2)CC(=O)N1	0.17	x
O=c1c2[nH]c3ccc(F)cc3c2ncn1CCN1CCN(Cc2ccccc2)CC1	1.7	-1
CCC(C)c1ccc(S(=O)(=O)NC(C)(C)CC)cc1 (stereo unspecified)	x	-1.2
O=C(Nc1cccc2c1CCCC2)N1c2ccccc2Sc2ccccc21	5	0.1
CC1CN(S(=O)(=O)c2ccc(NC(=O)CCCCCN3C(=O)c4ccccc4C3=O)cc2)CC(C)O1 (stereo unspecified)	0.36	-1.5
Cc1c(C(=O)Nc2cccc(C(F)(F)F)c2)sc2ncn(CC(=O)N3CCN(c4ccccn4)CC3)c(=O)c12	1.1	x
CCN1C(=O)c2ccccc2S(=O)c2ccc(C(=O)NCCc3ccc(C)cc3)cc21 (stereo unspecified)	-0.81	-0.05
C/C(N)=C(/C#N)C(=O)CSc1nc(N)cc(=O)[nH]1	x	-0.7
N#CC1=C(S)N(c2ccccc2)C2(CCCCC2)NC1=O	x	-0.85
COc1ccc2[nH]c(=O)c(CN(CCCN3CCOCC3)C(=O)Nc3ccccc3)cc2c1	x	-0.15
S=c1[nH]ncn1NCc1cccc(Br)c1	2.1	-0.25
CC[n+]1c(/C=C/C=C2\N(C)c3ccccc3C2(C)C)n(-c2ccccc2)c2ccc(C)cc21	-0.89	x
COc1ccc(CN2C(=O)C3C(c4ccc(C)cc4)OC4(C(=O)c5ccccc5C4=O)C3C2=O)cc1 (stereo unspecified)	-0.42	x
COC(=O)C1=C(C)NC(C)=C(C(=O)c2ccccc2)C1c1ccc(Br)cc1 (stereo unspecified)	-0.09	-0.65
Cc1ccc(/C=C/C2=Cc3c(sc(N)c3C#N)C(C)(C)C2)o1	x	0.4
CCOC(=O)c1sc(C)nc1C(F)(F)F	-0.21	-1.6
CCOC(=O)c1nn(-c2ccc(F)cc2)c(=O)c2c(NC(=O)c3ccc(Br)o3)scc12	x	1.8
CCCSc1nc2c3ccccc3ncn2n1	x	1.1
CN(C1CCCCC1)S(=O)(=O)c1cc(Br)cc2c1N(C(=O)C1CC1)CC2	9.1	-0.05
Cc1cc(=O)cc(C(F)(F)F)o1	-0.28	-0.5
CCN(CC)c1ccc(C(=O)OCC(=O)N(C)Cc2ccccc2)cc1	0.095	0.35
CCCN(C(=O)CC)c1nc(-c2ccccc2)cs1	-0.52	0.2
CC1c2ccsc2CCN1C(=O)c1ccc(C(F)(F)F)cc1 (stereo unspecified)	0.08	-0.3
Cc1ccc(C)c(S(=O)(=O)n2c([N+](=O)[O-])cnc2C)c1	-0.74	x
